T cruzi inh = blocks replication of Trypanosoma cruzi; T. cruzi beta-gal in NIH3T3, luminescence, 90 h; inhibition, % (test concentration not listed); hit rate 1.4% among 300,000; AID 1885;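 active = mean inhibition across valid replicates above about 55%, limit read from the data; inconclusive = mean below that limit but half or more replicates reach it; inactive = mean below it, under half of replicates reach it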;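 also: signal also drops with host cell toxicity which is not excluded here; 0% = plate median of DMSO wells and 100% = zero luminescence signal; higher percent means less beta-gal luminescence so fewer parasites; stock transfer was 50 nL into about 50 µL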
Ecoli rRNA inh = inhibitors of bacterial rRNA selective over humanized ribosomes; E. coli WT GFP vs humanized-ribosome RFP mutants, fluorescence, 24 h; active compounds read low; DMSO median 0, no signal -100; GFP signal change (wild-type ribosome), % (test concentration not listed); hit rate 1.6% among 350,000;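 active = significant combined selectivity score with lowered wild-type GFP, culture density cut under 30%, mutant RFP and density less affected; inactive = any of these conditions unmet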; also: one replicate is shown; some compounds called inactive have numbers as strong as hits
RanGTP-Impb inh = inhibitors of RanGTP-importin-beta interaction, primary screen, biochemical, FRET, CFP-Ran, YFP-importin-beta, homogeneous. inhibition, % (no concentration beside the values). hit rate 1.1% among 300,000. cell-free CFP-Ran/YFP-importin-beta FRET ratio. AID 2216;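 active = most replicates above 15%; inconclusive = exactly half above 15%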;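 also: 0% = DMSO wells and 100% = Ran loaded with GDP instead of GTP; wells of about 40 µL received 100 nL stock; the first replicate is given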
Calb FLC = C. albicans growth modulation with fluconazole. C. albicans CaCi-2 (fluconazole-resistant clinical isolate) + fluconazole, Alamar Blue growth, 48 h. hit rate 0.57% among 300,000. growth inhibition, % (concentration not given with the values);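 active = most replicates above 75%; inconclusive = exactly half above 75%; inactive = most below 75%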;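 also: all wells also contain fluconazole at 8 µg/ml as a sub-toxic cotreatment; 0% = median of DMSO wells and 100% = median of geldanamycin control wells; wells of about 8 µL received 7.5 nL stock; the first replicate is given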
Bfl-1 A1 inh = inhibitors of the anti-apoptotic protein A1, read as caspase activation. AID 2462. caspase activation, % (concentration not given with the values). MEF A1-2A-BIM cells, Caspase-Glo 3/7 luminescence, 3 h; percent of clofoctol response, vehicle zero. hit rate 0.066% among 330,000;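 active = over half of replicate activation scores above 10%, or exactly half above 10 with the replicate mean above 10; inconclusive = replicate mean below 10 yet half the replicates above 10; inactive = over half of replicates below 10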;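 also: wells of about 30 µL received 50 nL stock; many hits fall short of the cut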
Vif TR-FRET = HIV-1 Vif–A3G interaction blockers – biochemical, TR-FRET, GST-Vif 1-94, biotin-A3G peptide, dose response retest, primary screen (AID 1117319); TR-FRET GST-Vif / biotin-A3G peptide binding; higher % means a stronger effect; test concentration not given here; strong numbers were not always called active; hit rate 0.57% among 260,000; inhibition, %; hits with a dose series show IC50 in µM;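 active = above the screen mean plus three standard deviations and confirmed in dose response; inconclusive = results disagree or hit not tested in dose response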;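 also: Vif residues 1-94 fused to GST binding biotinylated APOBEC3G peptide 110-148; 0% = full assay without inhibitor and 100% = GST in place of GST-Vif; retest series ran down from 100 µM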
Beta cell apopt = beta cell apoptosis inhibition. INS-1E cytokine-induced death, ATP luminescence, 48 h; percent of positive-control rescue, neutral wells zero. hit rate 0.8% among 300,000. AID 435005. protection from apoptosis, % (concentration not given with the values);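 active = all replicates at 75% or more, or half of them and the mean; inconclusive = half reach 75% but not the mean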;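 also: 0% = cytokine-treated negative control wells and 100% = positive control rescue; higher means more ATP so stronger rescue from cytokine killing; wells of about 40 µL received 100 nL stock; the first replicate is given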
AF4-AF9 inh = blocks AF4 peptide binding to human AF9; AlphaScreen, biotin-AF4 peptide binding to FLAG-AF9; inhibition, % at 10 µM; hit rate 0.47% among 350,000;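 active = every replicate reaching a set inhibition limit, whatever the replicate mean, cut at about 25% in these data; inconclusive = mean inhibition reaches that limit but some replicates miss it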;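 also: 0% = plate neutral control median and 100% = total signal loss; the record names both 10 and 1 µM as test concentration; the first replicate is given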
Target sequence (P42568 whole entry, looked up): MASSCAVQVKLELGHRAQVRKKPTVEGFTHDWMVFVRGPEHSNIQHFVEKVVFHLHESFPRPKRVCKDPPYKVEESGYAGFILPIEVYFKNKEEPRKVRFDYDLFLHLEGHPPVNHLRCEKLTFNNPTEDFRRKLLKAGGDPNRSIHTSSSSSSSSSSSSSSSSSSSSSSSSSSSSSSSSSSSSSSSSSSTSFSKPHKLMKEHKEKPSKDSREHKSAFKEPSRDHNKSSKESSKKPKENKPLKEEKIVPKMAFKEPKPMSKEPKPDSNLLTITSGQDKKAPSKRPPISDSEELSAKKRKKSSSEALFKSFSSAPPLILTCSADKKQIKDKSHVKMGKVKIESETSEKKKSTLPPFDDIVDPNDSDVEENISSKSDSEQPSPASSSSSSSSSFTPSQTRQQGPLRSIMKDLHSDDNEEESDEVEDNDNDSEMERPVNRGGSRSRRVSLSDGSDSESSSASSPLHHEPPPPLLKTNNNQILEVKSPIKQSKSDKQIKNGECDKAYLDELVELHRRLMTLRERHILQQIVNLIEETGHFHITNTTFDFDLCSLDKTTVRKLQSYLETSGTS
Ecoli rRNA inh OD600 = also measured in Ecoli rRNA inh; calls as there; OD600 change, %; measured here: OD600 growth;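 optical density of the mix in the first replicate; 0 = DMSO median and -100 = no signal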
Ecoli rRNA inh RFP = further read-out of Ecoli rRNA inh, marked with its call; RFP signal change, %; measured here: RFP humanized mutant strains;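 first replicate; 0 = DMSO median and -100 = no signal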
* = called active by the depositor; ? = inconclusive; nt = not tested or not shown; & = joins results of further samples.

SMILES | T cruzi inh | Ecoli rRNA inh | Ecoli rRNA inh OD600 | Ecoli rRNA inh RFP | RanGTP-Impb inh | Calb FLC | Bfl-1 A1 inh | Vif TR-FRET | Beta cell apopt | AF4-AF9 inh
CCc1c(C)nc(N)n2c(SCC(=O)Nc3ccccc3OC)nnc12 | -11 | 12 | 14 | -7.2 | nt | -1 | -0.6 | 6% | -5 | -8.9
Cc1nn(-c2ccccc2)c2c1C(c1cccc([N+](=O)[O-])c1)N(c1ccccc1)C(=O)N2 (stereo unspecified) | -4 | nt | nt | nt | -2.4 | -2 | 0.5 | 18% | -4 | nt
CCc1ccc(NC(=O)C2CCN(S(=O)(=O)c3cccs3)CC2)cc1 | 12 | -5 | -7 | 1.1 | 3.7 | 1 | 0.5 | nt | 9 | -3.1
COc1ccccc1/C=C/C=N/NC(=O)c1ccncc1 | -8 | nt | nt | nt | 0.7 | -5 | -0.2 | -1% | -6 | 2.8
COCCCNC(=O)c1ccc2c(=O)n(Cc3ccccc3OC)c(=S)[nH]c2c1 | -3 | -2 | 5 | 9.1 | 4.1 | 1 | -0.1 | 5% | -13 | 1.5
CC[N+](CC)(CCCCS(=O)(=O)[O-])CCNP1(=O)C=C(c2ccccc2)OC(c2ccccc2)=C1 | 3 | 16 | 16 | 5.2 | -3.0 | -13 | -1.3 | 2% | 0 | -2.1
CC(=O)N(c1ccccc1)c1nc(/C=C/C(=O)O)cs1 | 1 | 10 | -1 | -3.0 | 1.5 | 1 | -0.1 | 8% | -5 | 0.0
CCOc1ccc(NC(=O)CSC2=NN3CCCC(=O)N=C3S2)cc1 | 1 | 3 | 12 | 0.0 | -0.2 | 45 | 0.5 | nt | -1 | 1.0
Cn1c(/C(C#N)=C2/CCCCCN2)nc2ccccc21 | -2 | nt | nt | nt | 0.6 | -3 | -0.5 | -3% | -2 | nt
O=C(O)/C(=C\c1ccco1)NC(=O)c1ccco1 | -4 | 18 | 8 | 2.7 | -0.4 | 1 | 1.5 | nt | -11 | 0.6
Cc1cccc(N2CCN(C(=O)c3ccc4c(c3)NC(=O)C(CSCc3ccc(F)cc3)N4)CC2C)c1 (stereo unspecified) | -12 | nt | nt | nt | 0.2 | 0 | 2.2 | nt | -6 | nt
N#Cc1ccc(OCC(O)CN2CCN(c3ncc(C(F)(F)F)cc3Cl)CC2)cc1 (stereo unspecified) | -5 | -49 | -77 | -14 | 2.9 | 5 | 0.2 | nt | 5 | -2.7
COc1ccc(NC(=O)CSc2nnc(Cn3c(=O)sc4ccccc43)n2C)cc1 | nt | 1 | 11 | 1.9 | nt | nt | 0.1 | 13% | 0 | 0.3
Cc1cc(Cl)ccc1OCC(=O)NC(=S)Nc1ccccc1N1CCOCC1 | -1 | nt | nt | nt | -1.0 | 26 | 0.7 | -12% | 2 | 1.4
COc1ccccc1-n1c(=S)[nH]c2c(sc(=S)n2-c2ccccc2)c1=O | 3 | 8 | 13 | 8.4 | 2.1 | 4 | -2.2 | 7% | -2 | 0.8
CCN1CCN(C(=O)C2CCN(S(=O)(=O)c3ccc4c(c3)NC(=O)C(C)S4)CC2)CC1 (stereo unspecified) | 16 | 8 | 8 | -0.2 | ? | -2 | 0.6 | nt | -11 | 1.0
COc1ccc(C(NC(=O)c2ccccc2F)NC(=O)c2ccccc2F)cc1 | 6 | nt | nt | nt | -1.1 | 6 | -0.6 | 23% | -4 | nt
COc1ccc2c(c1)-c1c(sn(-c3ccc(OC)c(OC)c3)c1=S)C(C)(C)N2 | 37 | nt | nt | nt | -2.8 | 34 | -1.2 | 1% | nt | nt
Cn1c(=O)[nH]c(=O)c2c1nc(N1CCOCC1)n2CCc1ccccc1 | -10 | 14 | 10 | -0.3 | ? | 7 | 0.0 | -2% | 0 | -0.7
CC(C)(C)OC(=O)NCCC(=O)N/N=C/c1ccc2nccnc2c1 | 1 | -1 | 7 | -0.9 | 4.2 | 1 | 0.6 | -7% | 5 | nt
C[C@H](CO)N1C[C@H](C)[C@@H](CN(C)C(=O)Nc2ccc(C(F)(F)F)cc2)Oc2c(NC(=O)Nc3ccc(C(F)(F)F)cc3)cccc2C1=O | nt | -1&-1 | -6&-1 | -10&-3.0 | nt | nt | 1.5 | nt | 7 | 1.9&-1.8
CCOC(=O)C1(S(=O)(=O)c2ccc(Cl)cc2)CCN(Cc2ccccc2)CC1 | 16 | nt | nt | nt | -5.4 | 3 | 0.9 | ? | -15 | nt
Cc1ccc(-c2csc(N3CCN(c4ccc5nc(-c6ccncc6)n(CCN6CCCCC6)c5c4)CC3)n2)cc1 | 19 | 2 | 11 | 5.6 | 6.6 | 13 | 0.9 | nt | -4 | nt
O=S(=O)(NC1CCCCC1NCc1ccco1)c1ccc(Cl)cc1 (stereo unspecified) | -15 | nt | nt | nt | -1.1 | -9 | -0.1 | -4% | -3 | nt
N#CCc1ccc(Oc2ncccn2)cc1 | -8 | 11 | 18 | -0.3 | 2.3 | -1 | -1.3 | 2% | -3 | -0.2
COc1cc(S(=O)(=O)N2CCC(c3nc4ccccc4s3)CC2)ccc1S(=O)(=O)NC1CCCC1 | 46 | 4 | 0 | -0.2 | 0.8 | 5 | 0.6 | 25% | 9 | 5.5
Cc1cc([N+](=O)[O-])nn1CCC(=O)Nc1nccs1 | -12 | 8 | 11 | 1.2 | -1.2 | 4 | -0.6 | -8% | 1 | -9.2
CC(=O)Nc1ccc(NC(=O)[C@@H](NC(=O)c2cccc(C)c2)C(C)C)cc1 | -6 | 10 | 11 | 0.8 | 0.7 | -2 | ? | 4% | nt | 0.9
Cc1c(Cl)cnc(NC(=O)COC(=O)c2cccc(S(=O)(=O)N3CCc4ccccc4C3)c2)c1Cl | 5 | 2 | -1 | 3.5 | 3.7 | -1 | 0.7 | 32% | 0 | -0.9
Cn1c(NCCCN2CCOCC2)nc2c1c(=O)n(Cc1ccc(Cl)cc1Cl)c(=O)n2C | 18 | nt | nt | nt | -1.1 | -10 | 0.1 | 3% | -1 | nt
CCOC(=O)C(NC(=O)c1ccccc1)=C1C=C(C)OC(C)=C1 | -14 | nt | nt | nt | -1.2 | 0 | 0.5 | 0% | -4 | nt
COc1cccc(NC(=O)Cn2c(SCC(=O)N3CCOCC3)nc3ccccc32)c1 | 3 | nt | nt | nt | -0.7 | -3 | 0.4 | -3% | -1 | nt
COc1cc2c(cc1OC)-c1nnc(-c3cccs3)n1C(C)(C)C2 | 3 | -3 | 0 | -7.2 | -1.7 | 6 | 0.4 | nt | -1 | -3.3
O=C(Nc1nnc(-c2ccccc2Cl)o1)c1ccco1 | -4 | nt | nt | nt | 6.1 | 41 | 0.9 | 5% | -5 | nt
O=C1CSC(c2ccc([N+](=O)[O-])cc2)N1c1ccc(O)cc1 (stereo unspecified) | -21 | -7 | 7 | 1.0 | 0.6 | -1 | 0.4 | -6% | 0 | 0.3
COc1ccc(C(=O)C2CCCN(Cc3c(C)[nH]c4ccccc34)C2)c(OC)c1 (stereo unspecified) | 62* | nt | nt | nt | 0.1 | -5 | 1.4 | 9% | 6 | nt
CN(c1ccccc1)c1nc(N)c([N+](=O)[O-])c(N2CCOCC2)n1 | 5 | -3 | 9 | 2.1 | 1.7 | -3 | 1.1 | -17% | -4 | 2.5
COc1ccc(/C=C2/C(=O)N(c3ccccc3)N=C2C)cc1OC | -2 | 13 | 32 | 11 | 3.4 | 1 | -0.2 | nt | 5 | -0.8
O=C(CNC(=O)c1ccccc1F)N/N=C/c1ccc2c(c1)OCO2 | 7 | 17 | 13 | 5.8 | -1.8 | 2 | 0.7 | -3% | -1 | -2.5
CCOc1ccc(CCNC(=O)Cc2ccc(NC(=O)C3=C(C)OCCS3)cc2)cc1 | 7 | 7 | 9 | 0.6 | 0.7 | -9 | 0.0 | nt | -3 | -2.8
COc1cc2sc(-c3ccc(S(C)(=O)=O)cc3)c(C(=O)NCc3ccc(C)o3)c2cc1OC | nt | -6 | 10 | 3.2 | nt | nt | 0.0 | nt | -3 | -38
CS(=O)(=O)c1ccc(-c2nnn(CC(=O)Nc3ccc4c(c3)OCCO4)n2)cc1 | 9 | 8 | 7 | -1.2 | 1.9 | -1 | 0.4 | 1% | 0 | -1.4
CCOc1cc(/C=N/O)ccc1OS(=O)(=O)c1ccc(C)cc1 | -6 | nt | nt | nt | 1.0 | 10 | -1.4 | 25% | -12 | nt
CCCc1ccc(C2=Nn3c(nnc3C(C)C)SC2)cc1 | 21 | nt | nt | nt | 1.8 | 8 | -0.6 | nt | 6 | nt
Cc1ccc(OCC(=O)NCCCNC(=O)c2cccnc2)cc1 | 2 | 2 | 4 | 2.0 | 1.0 | 2 | 0.0 | nt | 22 | -9.3
O=C(COC(=O)c1ccc(S(=O)(=O)C(F)F)cc1)NC(=O)NC1CCCCC1 | -8 | -2 | 3 | -0.2 | 1.8 | -3 | -0.5 | 0% | -8 | -0.1
C=CCN1C(=O)c2ccc(C(=O)N3CCN(S(=O)(=O)c4cccc(Cl)c4)CC3)cc2C1=O | 0 | -7 | 2 | -3.3 | 0.3 | 0 | -0.1 | nt | -12 | 3.6
CCOC(=O)C1=C(C)Nc2ncnn2C1c1cc(OC)ccc1OC (stereo unspecified) | -3 | nt | nt | nt | -0.2 | 2 | 0.2 | -4% | nt | nt
C=CCn1c(O)c(N=Nc2ccccc2)c2ccccc21 | -9 | 9 | -1 | 5.4 | -1.2 | -4 | 0.3 | ? | -5 | 6.0
CC1=NN(C(N)=S)C(C)(C)C1 | -3 | 7 | 8 | -1.7 | 0.3 | -2 | 0.6 | nt | 0 | -3.3
O=C(O)CCCC(=O)N1N=C(c2ccccc2)CC1c1ccc2nccnc2c1 (stereo unspecified) | -6 | nt | nt | nt | -3.1 | -5 | -1.0 | nt | 0 | nt
COCCCNC(=O)NC(=O)c1ccccc1 | 2 | nt | nt | nt | -1.6 | 4 | 0.2 | 2% | -9 | nt
Cc1ccc(C(=O)N2CCN(S(=O)(=O)c3ccc(C)cc3)CC2)cc1 | 10 | -4 | -3 | -0.8 | -2.5 | 30 | 0.3 | -8% | 1 | -0.5
O=C(NCc1cccs1)c1cc(-c2cccc(Cl)c2)on1 | 15 | nt | nt | nt | 4.1 | 11 | -0.4 | ? | 3 | nt
CCCCCCOc1ccc(OC(=O)c2ccncc2)cc1 | 29 | 2 | 1 | -6.0 | -0.6 | 2 | -0.1 | -6% | 4 | nt
Cc1cc(Br)c(S(=O)(=O)NCc2cccnc2)cc1C | -5 | 5 | 0 | 0.5 | -2.6 | -6 | -0.6 | nt | -4 | -1.7
CCC(C)(C)NC(=O)C(c1ccncc1)N(C(=O)Cn1nnc2ccccc21)c1cc2c(cc1C(C)=O)OCO2 (stereo unspecified) | 2 | 10 | 6 | -1.9 | 0.8 | -2 | 0.1 | -4% | -2 | -2.0

High-throughput results (PubChem)

The list is partial (hit frequency here may not be typical).
